# StopGo FLuc = Primary qHTS Assay for Foot and Mouth Disease Virus Antivirals against NCGC Sytravon and CBC Compound Libraries: Firefly Luciferase Signal; HEK cells with a luciferase reporter of 2A StopGo recoding; Potency, µM (top dose mostly 57.5 µM), inactives show top-dose signal change, negative = less light; 0.23% of 120,000 active; AID 1745856, 2022; active = well fitted falling curve with a large enough effect; inconclusive = small, poorly fitted or top-dose-only effect; inactive = no such curve, though single readings can be large or run the other way; also: nearly all actives have a fitted effect of over 60% in size; overnight with compound
# 2A Renilla = Primary qHTS Assay for Foot and Mouth Disease Virus Antivirals against NCGC Sytravon and CBC Compound Libraries: Renilla Luciferase Signal; Potency, µM (series often up to 57.5 µM), without a hit: at the top dose signal change, negative = less light; AID 1745857, 2022; HEK cells with a luciferase reporter of 2A StopGo recoding; 0.32% of 120,000 active; active means well fitted falling curve with a large enough effect; inconclusive means small, poorly fitted or top-dose-only effect; inactive means no such curve, though single readings can be large or run the other way; also: nearly all actives have a fitted effect of over 55% in size; overnight with compound
# An asterisk follows results filed as active; ? = inconclusive; & = joins results of further samples; [ ] = remark or other dose. % is scaled to controls: 0 for no effect and ±100 for the full control effect; potency is read from the fitted curve at half-maximal effect.
SMILES,StopGo FLuc,2A Renilla
COc1cccc(-c2cc(C(F)(F)F)nc(NCCc3ccccc3)n2)c1,49.2%[activator],-7.7%
CC(C)c1noc(CN2CCN(c3oc(C4CC4)nc3C#N)CC2)n1,-3.7%,-0.9%
COC(=O)c1ccc(Nc2nnc(-c3ccc(C)c(S(=O)(=O)N4CCN(C)CC4)c3)c3ccccc23)cc1,17.3%,0.0%
C[C@H](O)[C@@H]1C(=O)N2CCc3c([nH]c4c(-c5ccc6c(c5)OCO6)cccc34)[C@@H]2C[C@@H]1N(C)C(=O)c1ccccc1F,?,?
O=C(NC1CC1)C1(c2ccc(Cl)cc2)CC1,-2.8%,10.8%
CCOc1ccc(S(=O)(=O)N2CCN(c3ccc(Cl)c(Cl)c3)CC2)c2ccccc12,1.6%,9.4%
CCN(CC)CC1CCN(C(=O)c2ccc(C#N)cc2)CC1,-5.9%,-1.0%
Cc1ccc(-c2nn(CC(=O)Nc3cccc(C)c3)c(=O)c3ccccc23)cc1,11.2%,0.7%
N#Cc1c(OCC(=O)N2CCCC2)nc(-c2ccco2)c2c1CCC2,-15.5%,-11.5%
COc1ccc(OC)c(CNc2ncc(-c3ccc(Cl)cc3)n2C)c1,-10.9%,-1.4%
NNCc1cccnc1,31.5%[activator],4.7%
COc1ccc(CCNc2nc(-c3ccc(O)cc3)cs2)cc1OC,?,?
Cc1ccnc(NC(=O)c2nccnc2N)c1,161.0%[activator],7.9%
CCC(=O)N1CCc2cc(Br)cc(S(=O)(=O)CCC(=O)Nc3ccc(C)c(F)c3)c21,-18.1%,-7.7%
Cc1cc(C)cc(NC(=O)c2sc3nc4n(c(=O)c3c2C)N=C(c2ccc(F)cc2)CS4)c1,-2.0%,-8.8%
CCCNS(=O)(=O)c1ccc2nc(NC(=O)c3ccc(F)cc3)sc2c1,28.2%,240.1%[activator]
Cc1cc(-n2nc3ccc(Cl)cc3n2)c(O)c(C(C)(C)C)c1,-8.4%[11.5 µM],-2.2%
O=C(OCC(=O)c1ccccc1)/C(=C/c1cccs1)c1cccs1,36.8%[activator],21.3%
CNC(=O)c1c(NC(=O)Cc2coc3cc(C)ccc23)sc2c1CCCC2,4.5%,45.3%[activator]
COc1ccc(-n2c(=O)c3sc4ccccc4c3n(CC(=O)Nc3ccccc3F)c2=O)cc1,2.2%,-0.6%

# Reprinted from the part before: four entries, followed by the next part.
SMILES,StopGo FLuc,2A Renilla
Cc1cc(-n2nc3ccc(Cl)cc3n2)c(O)c(C(C)(C)C)c1,-8.4%[11.5 µM],-2.2%
O=C(OCC(=O)c1ccccc1)/C(=C/c1cccs1)c1cccs1,36.8%[activator],21.3%
CNC(=O)c1c(NC(=O)Cc2coc3cc(C)ccc23)sc2c1CCCC2,4.5%,45.3%[activator]
COc1ccc(-n2c(=O)c3sc4ccccc4c3n(CC(=O)Nc3ccccc3F)c2=O)cc1,2.2%,-0.6%
COc1cccc(N2CCN(C(=O)C3CCN(S(=O)(=O)c4c(C)noc4C)CC3)CC2)c1,20.9%,-8.1%
O=C(CC12CC3CC(CC(C3)C1)C2)NCc1ccc(Cl)cc1Cl,15.7%,21.3%
COc1ccc(-c2cc(C(F)(F)F)nc(SCC(=O)N3CCCCC3C)n2)cc1OC (stereo unspecified),-3.7%,4.3%
COc1ccc(Cl)cc1-n1c2c(cc(C#N)c1=O)C(=O)CC(C)(C)C2,-15.9%,-6.6%
CC(=O)N(c1nc(C)c(C(=O)Nc2ccc3[nH]ccc3c2)s1)C(C)C,187.2%[activator],13.1%
Cc1c(CC(=O)NCCc2cccc(F)c2)c(=O)oc2cc(O)ccc12,5.7%,5.3%
COc1ccc(-n2nc3c(c2NC(=O)C(=O)N2CCN(C)CC2)CSC3)cc1,-0.8%,4.9%
CCOc1cc(C(=O)Nc2ccc(OC)cc2)nc2ccc(Cl)cc12,6.0%,-15.0%
CC(C)c1ccc(C2C(C(=O)c3cccs3)=C(O)C(=O)N2c2nncs2)cc1 (stereo unspecified),31.5%[activator],8.6%
CCOC(=O)c1sc2cccc(F)c2c1COC(=O)c1cc(C)oc1C,4.9%,16.4%

# Record cards, as listed above.
# COc1ccc(-n2nc3c(c2NC(=O)C(=O)N2CCN(C)CC2)CSC3)cc1 is listed with StopGo FLuc = -0.8%; 2A Renilla = 4.9%
# CCOC(=O)c1sc2cccc(F)c2c1COC(=O)c1cc(C)oc1C is listed with StopGo FLuc = 4.9%; 2A Renilla = 16.4%

# Continuation:
SMILES,StopGo FLuc,2A Renilla
Cc1cc2oc(=O)cc(CN(C)CCOc3ccccc3F)c2cc1Cl,3.2%,-0.8%
COc1ccc(NC(=O)Cn2nnc(C(=O)NCc3ccco3)c2N)c(OC)c1,14.8%,2.1%
CC(=O)c1cccc(NC(=O)C2=CC(c3ccc4c(c3)OCO4)=NS(=O)(=O)N2C)c1,1.0%,?
CCOC(=O)c1sc2ccccc2c1S(=O)(=O)Nc1c(C)cccc1C,-18.4%,292.0%[activator]
O=[N+]([O-])c1ccc(N/N=C/c2c[nH]c3ccccc23)c(S(=O)(=O)Nc2ccccc2Cl)c1,-18.1%,68.2%[activator]
CCN(CC(=O)NCc1ccc(F)cc1)C(=O)c1ccc2[nH]c(C)c(C)c2c1,19.1%,0.0%
COc1ccc(NC(=O)COc2nc(CC(C)C)c3c(c2C#N)CCC3)c(OC)c1,8.9%,3.2%
COc1ccc(OCC(=O)NCc2ccc3c(c2)CCN3C(=O)c2cccc(C)c2)cc1,-4.1%,-10.6%
NCCCCCC(=O)O,9.1%[11.5 µM],16.2%
CCOc1ccccc1NC(=O)Cn1c(=O)n(Cc2ccco2)c(=O)c2ccc(C(=O)NC3CCCC3)cc21,58.1%[activator],21.8%
Cc1cccc(CNC(=O)c2ccc(Cn3c(SCc4ccccc4)nc4cccnc43)cc2)c1,22.5%,-6.2%
Cc1cc2oc(=O)cc(CN3CCC4(CC3)OCCO4)c2cc1C,131.1%[activator],39.3%[activator]
CC1CCN(c2nc3ccccc3nc2SCC(=O)Nc2ccccc2C(C)C)CC1,-1.2%,19.4%
COCCCn1c(-c2ccc(Cl)cc2)n[nH]c1=S,-6.7%,-6.4%
CCc1ccccc1NC(=O)CCCn1c(=O)c2cccn2c2ccccc21,-18.9%,19.2%
CC(C)(C)OC(=O)N1CCN(C(C(=O)O)c2c[nH]c3ccccc23)CC1 (stereo unspecified),1.7%,-10.2%
Cc1ccc(-n2cnnn2)cc1NC(=O)c1sccc1C,13.7%,2.8%
CCCCCC1=CCC/C1=N/NC(=S)NCCOC,-5.6%,-5.3%
COc1ccc(N2Cc3cccc(C(=O)Nc4cccc(F)c4)c3C2=O)cc1,10.4%,5.0%
CCOC(=O)C(NC(=O)/C=C/c1ccc(OCC)c(OC)c1)C(=O)OCC,17.7%,-0.5%
COc1ccc(NC(=O)CCS(=O)(=O)c2cccc3nonc23)cc1Cl,30.8%[activator],18.8%
Cc1cn2c(=O)cc(COC(=O)COc3ccccc3)nc2s1,-10.1%,-12.7%
CCc1nnc2sc(-c3ccc(C)c(NC(=O)C(C)(C)C)c3)nn12,0.0%,0.0%
COc1cccc2cc(C(=O)NCCc3c(C)[nH]c4ccc(F)cc34)c(=O)oc12,-8.9%,-10.4%
CN(C)S(=O)(=O)c1ccc(S(=O)(=O)N2CCN(Cc3cccc4cccnc34)CC2)cc1,?,?
Cc1ccc(-c2ccccc2)c(Oc2ccc(C#N)c(C#N)c2)c1,-1.7%,-4.1%
CCCNc1ncnc2c1c(-c1ccccc1)cn2-c1ccc(OCC)cc1,-8.9%&2.3%,-7.5%&4.9%
CCOC(=O)Oc1ccc2c(=O)c(Oc3ccc(CC)cc3)c(C(F)(F)F)oc2c1,114.5%[activator],0.0%
CC(Oc1ccc(Cl)cc1Cl)C(=O)Nc1ccc2oc(-c3ccncc3)nc2c1 (stereo unspecified),22.9%,20.1%
CC1CCC(NC(=O)c2cncc(Br)c2)CC1 (stereo unspecified),0.0%,-9.1%
CN(c1ccccc1)S(=O)(=O)c1ccccc1C(=O)OCn1nnc2ccccc2c1=O,34.3%[activator],91.4%[activator]
CCn1nc(-c2ccccc2)c(-c2ccccc2)c(C(=O)Nc2nc(C)c(C(C)=O)s2)c1=O,-16.0%,0.8%
CC(C)(C)c1ccc(OCCn2cc(C(=O)c3ccco3)c3ccccc32)cc1,-14.0%,-15.1%
COC(=O)c1ccc(CNC(=O)C(C)Sc2ccccc2)cc1 (stereo unspecified),0.0%,1.0%[1.06 µM]
CC1=C(C(=O)Nc2ccccc2C)C(c2cccs2)n2nc(SCc3ccccc3)nc2N1 (stereo unspecified),-8.3%,0.8%
NCc1ccc2cc[nH]c2c1,-6.1%,-8.4%
CCC(C(=O)Nc1ccc2c(c1)OCO2)n1nc(-c2ccccc2)ccc1=O (stereo unspecified),11.7%,16.4%
CCc1ccc(N2CCN(C(=O)c3cc4cc([N+](=O)[O-])ccc4oc3=O)CC2)cc1,-2.4%,-12.1%
CCN(C(=O)CCNC(=O)c1ccccc1C)C12CC3CC(CC(C3)C1)C2,-28.4%,27.3%
CC(Oc1ccc(F)cc1)C(=O)Nc1cccc2cccnc12 (stereo unspecified),16.4%,16.3%
O=C(CCCc1nc2ccccc2o1)NCc1ccc(Cl)cc1,19.2%,5.9%
Cc1cc(C)c2c(=O)cc(C(=O)NCc3ccc(S(N)(=O)=O)cc3)oc2c1,28.7%,40.1%[activator]
Cc1ccc(C(=O)N2CCCC(c3nc4ccccc4[nH]3)C2)c(C)c1 (stereo unspecified),?,?
CN(Cc1nc2ccccc2n1C(F)F)S(=O)(=O)c1ccccc1,74.4%[activator],36.8%[activator]
Fc1ccc(/C=N/Nc2ccc(C(F)(F)F)cn2)cc1,73.1%[activator],16.9%
CN(C)c1oc(-c2ccccc2)nc1S(=O)(=O)c1ccc2c(c1)OCCO2,10.3%,124.7%[activator]
CN(C)c1ccc(NC(=O)Cn2cnc3c2c(=O)n(C)c(=O)n3C)cc1,138.8%[activator],1.0%
Cc1ccc(C)c(Cn2c(C(=O)O)c(CNCc3cccs3)c3ccccc32)c1,-20.2%,141.4%[activator]
N#Cc1nc(-c2ccco2)oc1N1CCN(C(=O)c2ccccc2F)CC1,10.1%,4.4%
Cc1ccc(N(C)S(=O)(=O)c2nnc(NC(=O)c3ccco3)s2)cc1,15.0%,22.7%

# Single values from above:
# 2A Renilla, CN(Cc1nc2ccccc2n1C(F)F)S(=O)(=O)c1ccccc1 is entered as 36.8%[activator]
# 2A Renilla, Cc1cc(C)c2c(=O)cc(C(=O)NCc3ccc(S(N)(=O)=O)cc3)oc2c1 is entered as 40.1%[activator]
# 2A Renilla, CN(C)c1oc(-c2ccccc2)nc1S(=O)(=O)c1ccc2c(c1)OCCO2 is entered as 124.7%[activator]

# Later entries:
SMILES,StopGo FLuc,2A Renilla
Cn1c(=O)c2c(-c3ccccc3Br)n(C(C)(C)C)cc2n(C)c1=O,6.7%,-16.6%
CCC(CC)NC(=O)c1cccc(C)c1,0.2%,-8.4%
O=C(NC1CC1)c1cccc(NC(=O)c2nn(Cc3ccccc3)c(=O)c3ccccc23)c1,0.0%,22.9%
Cc1ccc2c(c1)N(C(=O)NCc1ccccc1)CCO2,-13.4%,-12.2%
Cc1cc(C)c(NC(=O)C2CC=CCC2)c(C)c1 (stereo unspecified),12.0%,7.8%
Cc1ccc(C=Nc2ccc(Nc3ccccc3)cc2)s1,0.0%,-2.7%
Cc1nn(-c2ncnc3nc[nH]c23)c2c1C(c1ccc(F)c(F)c1)SCC(=O)N2 (stereo unspecified),14.2%,2.5%
Cc1cccc(OCC(=O)Nc2nnc(S(=O)(=O)N3CCCCCC3)s2)c1,-7.3%,-1.1%

# Compound activity: PubChem BioAssay, National Center for Advancing Translational Sciences (NCATS)

# This is a subset; count on the stated rates, not on these rows.
